# Compound activity: PubChem BioAssay, National Center for Advancing Translational Sciences (NCATS)
# TRPML1 blocker – human mucolipin-1 channel inhibition; actives 0.02% (n = 390,000); AID 624415; activity change, negative = inhibition, % (test concentration not listed); TRPML1-inducible cells, Ca2+ dye fluorescence, FDSS; active compounds read low; inhibition of EC80 agonist-evoked calcium signal; Q9GZU1; in the data active means activity change below about -50%; inconclusive means about -30% to -50%; inactive means above about -30%;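 also: stimulus is agonist 54-4 at its EC80 concentration; % is scaled to controls: 0 for no effect and ±100 for the full control effect; compound concentration not given in the record; the text of the record puts the active cut at -80%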
#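 Calcium fluorescence in TRPML1-DL cells induced overnight with Tet: a 110 s read after compound pin addition, then a 110 s antagonist read after challenge with 54-4 at 4 uM final (EC80).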
# CtBP-E1A blk – CtBP/E1A binding inhibition. activity change, % (no concentration beside the values). actives 0.49% (n = 340,000). AlphaScreen GST-E1A/His-CtBP binding, 1536-well; active compounds read low; control for the full effect not named in the record; in the data active means activity change below about -65%; inconclusive means about -30% to -65%; inactive means above about -30%; also: % is scaled to controls: 0 for no effect and ±100 for the full control effect
#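 AlphaScreen with 125 nM GST-E1A and 125 nM His-CtBP (5X stocks) in Tris pH 8.0, 300 mM NaCl, BSA, Tween 20, TCEP. Compounds preincubated 2 h at 37 deg C, then glutathione donor/nickel acceptor beads added for 1 h at 37 deg C in dark.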
# Six1-Eya2 inh – inhibitors of human Six1/Eya2 interaction; actives 0.56% (n = 360,000); AID 651725; AlphaScreen GST-Six1/His-Eya2 binding, biochemical; active compounds read low; control for the full effect not named in the record; activity change, % (test concentration not listed); Q15475+O00167; in the data active = activity change below about -65%; inconclusive = about -30% to -65%; inactive = above about -30%; also: % is scaled to controls: 0 for no effect and ±100 for the full control effect
# Target sequence (O00167 whole entry, looked up): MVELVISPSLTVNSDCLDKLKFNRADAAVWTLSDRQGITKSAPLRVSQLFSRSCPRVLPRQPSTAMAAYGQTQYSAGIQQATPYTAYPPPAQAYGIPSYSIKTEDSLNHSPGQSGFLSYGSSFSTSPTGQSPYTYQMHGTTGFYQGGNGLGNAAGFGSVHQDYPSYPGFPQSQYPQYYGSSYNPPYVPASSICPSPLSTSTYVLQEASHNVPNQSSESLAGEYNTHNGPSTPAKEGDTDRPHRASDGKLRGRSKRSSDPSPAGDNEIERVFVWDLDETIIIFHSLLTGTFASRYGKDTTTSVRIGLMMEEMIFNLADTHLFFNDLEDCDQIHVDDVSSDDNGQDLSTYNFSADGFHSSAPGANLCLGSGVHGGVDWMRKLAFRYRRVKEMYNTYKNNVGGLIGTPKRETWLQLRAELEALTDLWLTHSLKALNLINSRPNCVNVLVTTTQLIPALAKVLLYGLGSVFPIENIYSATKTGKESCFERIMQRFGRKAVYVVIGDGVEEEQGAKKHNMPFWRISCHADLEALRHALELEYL
# Target sequence (Q15475 whole entry, looked up): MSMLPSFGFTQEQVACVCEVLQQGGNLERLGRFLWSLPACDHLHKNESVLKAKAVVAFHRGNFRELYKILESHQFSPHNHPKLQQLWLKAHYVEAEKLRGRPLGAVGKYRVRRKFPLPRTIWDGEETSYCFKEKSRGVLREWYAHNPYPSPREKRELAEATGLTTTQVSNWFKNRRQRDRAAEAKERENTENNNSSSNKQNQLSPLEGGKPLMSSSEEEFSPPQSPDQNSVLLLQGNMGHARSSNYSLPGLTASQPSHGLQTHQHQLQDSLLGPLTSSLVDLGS
#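 GST-Six1 + His-Eya2 (5X stock: 250/500 nM); Tris pH 8.0, 300 mM NaCl, 0.05% BSA, 0.02% Tween 20; GSH donor/Ni acceptor beads; 1 h 37 °C dark; AlphaScreen readout.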
# TRPML1 agonist – activates the human TRPML1 channel. activation, % (no concentration beside the values). TRPML1-expressing cells, Ca2+ dye fluorescence, FDSS; host cell line not named in the record; reference of the full effect not given here. Q9GZU1. actives 0.12% (n = 410,000); in the data active = activation above about 50%; inconclusive = about 30% to 50%; inactive = below about 30%; also: 0% is about no effect; the text of the record puts the active cut at 80%
#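 Tetracycline-induced TRPML1-DL cells are seeded and incubated overnight before loading with a no-wash Ca2+ dye and quencher. Agonist activity is taken from the 110 s fluorescence read following compound pin-transfer on an FDSS, before EC80 54-4 challenge.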
# * = called active by the depositor; / = not tested or not shown; & = joins results of further samples. A portion of the library (hit frequency here may not be typical).
compound	CtBP-E1A blk	TRPML1 agonist	TRPML1 blocker	Six1-Eya2 inh
CCOC(=O)Cn1c(=O)oc2cc(S(=O)(=O)Nc3cc(OC)cc(OC)c3)ccc21	/	-0.5	16	/
NC(=O)C1CCN(c2ncnc3c2cnn3-c2ccccc2)CC1	/	0.9	-14	/
CCOC(=O)c1cccc(NS(=O)(=O)c2ccc(-c3cnc(C4CC4)o3)cc2)c1	/	0.9	47	/
CCOc1ccccc1NC(=O)c1cc2ccc3cccnc3c2[nH]1	/	5.2	60	/
CCN(CC)S(=O)(=O)c1ccc2c(c1)c(=O)c(C(=O)N1CCN(c3cc(C)ccc3C)CC1)cn2C	/	-0.8	4	/
CC(=O)N1CCCc2cc(S(=O)(=O)N3CCC(C(=O)N(C)C4CCCCC4)CC3)ccc21	/	0.3	4	/
COc1cccc(NC(=O)Cn2nc3c4ccccc4n(Cc4cccc(F)c4)cc-3c2=O)c1	/	1.3	8	/
COc1ccc2c(c1)c1c(c(=O)n(-c3cccc(C)c3)c(=O)n1CC(=O)NCC1CCCO1)n2C (stereo not given)	/	-0.3	-15	/
CCOCCCNc1ncnc2c1cnn2-c1ccc(C)c(C)c1	/	0.6	23	/
O=C(CN1c2ccccc2S(=O)(=O)c2ccccc21)Nc1ccccc1Cl	/	1.0	-7	/

# Overlap with the part before: 2 entries, followed by the next part.
compound	CtBP-E1A blk	TRPML1 agonist	TRPML1 blocker	Six1-Eya2 inh
CCOCCCNc1ncnc2c1cnn2-c1ccc(C)c(C)c1	/	0.6	23	/
O=C(CN1c2ccccc2S(=O)(=O)c2ccccc21)Nc1ccccc1Cl	/	1.0	-7	/
CCOCCn1ccc2c(OCC(=O)Nc3cc(C(F)(F)F)ccc3Cl)cccc2c1=O	/	-1.1	-10	/
O=S(=O)(NCCc1ccc(Cl)cc1)c1ccc(N2CCCCS2(=O)=O)cc1	/	-0.3	7	/
O=C(CSc1nnc2[nH]c(=O)cc(-c3ccccc3)n12)Nc1ccc(F)cc1F	/	2.7	7	/
CC1Cn2c(C(=O)NCCc3ccc(Cl)cc3)cc3cccc(c32)S1 (stereo not given)	/	1.6	46	/
Cn1c(=O)c2c(-c3ccccc3)n3c(c2n(C)c1=O)C(c1ccco1)Nc1ccccc1-3 (stereo not given)	/	-0.8	-5	/
Cc1ccc(C)c(NC(=O)Nc2cccc(-c3cn4cccnc4n3)c2)c1	/	1.4	-25	/
CCSc1ncc(Cl)c(C(=O)Nc2ccc(S(=O)(=O)Nc3nccc(C)n3)cc2)n1	/	-0.2	7	/
COc1ccc(-c2c(C)c3ccc(O)c(CN4CCOCC4)c3oc2=O)cc1OC	/	-0.9	20	/
O=C(CSCc1cnn(-c2ccccc2)c1-n1cccc1)Nc1ccc(F)cc1F	/	0.6	-3	/
CC(C(=O)NCc1ccccc1F)n1ccc2cc(S(=O)(=O)N3CCCC3)ccc21 (stereo not given)	/	-0.3	4	/
COc1ccc(CCNC(=O)Cn2c(=O)n(-c3ccc(OC)c(OC)c3)c(=O)c3ccccc32)cc1OC	/	1.0	-7	/
Cc1oc(-c2cccc(Cl)c2)nc1CS(=O)(=O)CC(=O)NCc1ccccc1Cl	/	2.9	1	/
COc1ccc(Nc2c3c(nc4ccccc24)CCC3)cc1Cl	/	-0.3	14	/
CCc1ccc(S(=O)(=O)c2nnn3c2nc(N(C)Cc2ccccc2)c2cc(Cl)ccc23)cc1	/	-0.4	12	/
CCc1ccccc1NC(=O)CN(C)S(=O)(=O)c1cccc2nsnc12	/	-0.3	3	/
COc1ccc(-c2nc3sc(CCNC(=O)c4ccco4)c(C)n3n2)cc1	/	-0.7	4	/
CCOC(=O)c1c(NC(=O)C(C)Sc2cn(CCNC(=O)c3ccc(OC)cc3)c3ccccc23)sc2c1CCC2 (stereo not given)	/	0.8	-3	/
CCCN1CCc2nc(N3CCN(C)CC3)ncc2C1	/	1.6	18	/
CC(NC(=O)CCCn1c(=O)c2cccn2c2cccnc21)c1ccccc1 (stereo not given)	/	-0.9	6	/
CC1CCN(C(c2ccccc2)c2sc3nc(-c4ccco4)nn3c2O)CC1 (stereo not given)	/	1.3	-23	/
O=c1c2oc3ccccc3c2n(Cc2cccc(Cl)c2)c(=O)n1Cc1ccco1	/	1.2	32	/
COc1ccccc1N1CCN(S(=O)(=O)c2c(C)sc3ncn(CC(=O)N(C)c4ccc(Cl)cc4)c(=O)c23)CC1	/	-0.5	-5	/
CCCc1ccc(OCC(=O)Nc2sc3c(c2C(=O)OCC)CCC(C(C)(C)C)C3)cc1 (stereo not given)	/	0.5	-12	/
COc1ccccc1NC(=O)CSc1nc2c(oc3ccccc32)c(=O)n1-c1ccccc1F	/	0.4	8	/
Cc1nn(CCCC(=O)Nc2cc(C(F)(F)F)ccc2Cl)c(=O)c2c1sc1ccccc12	/	-0.3	-20	/
CCC(C(=O)N1CCN(c2cc(Cl)ccc2C)CC1)n1nc(C)c2sc3ccccc3c2c1=O (stereo not given)	/	0.3	3	/
Cc1nc(N2CCCC2)ncc1C(=O)Nc1ccc(OC(F)(F)F)cc1	/	3.9	-1	/
Cc1ccc(S(=O)(=O)c2nnn3c2nc(NC(C)C)c2sccc23)cc1	/	-0.2	-11	/
CCOc1ccc(C2CC(=O)Nc3c2c(=O)nc(SCc2ccccc2C)n3C)cc1OC (stereo not given)	/	0.1	3	/
CC(C)c1ccc(NC(=O)c2cc3c(=O)[nH]c4ccccc4c3n2C)cc1	/	0.1	-13	/
Cc1ccc(-n2nc(C(=O)Nc3ccc(C)c(F)c3)c3c4ccccc4n(C)c3c2=O)cc1	/	2.0	10	/
Cc1ccc(C)c(NC(=O)N(C)CCc2c(C)nn(C)c2C)c1	/	-0.4	-8	/
Cc1ccc(/C=C/c2nc3ccccc3n2S(=O)(=O)c2cccc(Cl)c2)cc1	/	0.8	-23	/
CCc1nn(CC(=O)NCCCOC)c(=O)c2cc3occc3n12	/	-0.3	-4	/
CCOC(=O)c1ccc(NC(=O)CCCc2nc(-c3cc(OC)c(OC)c(OC)c3)no2)cc1	/	1.8	8	/
COc1ccc(C2=C(N3CCN(c4cc(C)ccc4C)CC3)c3ccccc3C2=O)cc1	/	-0.6	-5	/
COc1ccc(CNC(=O)c2nc(Cn3nc(C)c(Br)c3C)no2)cc1OC	/	1.8	-25	/
COc1ccc(-c2nc3ccccc3o2)cc1NC(=O)c1cccnc1	/	1.3	-4	/
CC(=O)N1c2c(cc(Br)cc2S(=O)(=O)N2CCN(c3cccc(Cl)c3)CC2)CC1C (stereo not given)	/	-0.6	4	/
Cc1coc2c(C)c3oc(=O)c(CCC(=O)NCCc4ccccc4F)c(C)c3cc12	/	-0.2	28	/
Cc1cc(C)cc(NC(=O)c2cc(CN3CCCC3)on2)c1	/	0.3	-3	/
Cc1cc(N2CCC(C)CC2)nc2ccc(NC(=O)Cc3c(F)cccc3Cl)cc12	/	0.4	2	/
CCCOc1ccc(-c2nc(N3CCCCC3)c3ccccc3n2)cc1	/	-0.5	-14	/
Cc1nc(SCc2ccccc2Cl)c(C#N)c(C)c1C	/	-0.5	-15	/
Clc1cccc(-n2ncc3c(N4CCC(Cc5ccccc5)CC4)ncnc32)c1	/	0.3	-13	/
Cc1oc(-c2ccc(C(=O)NC(C)c3ccccc3)cc2)nc1CS(=O)(=O)c1ccccc1 (stereo not given)	/	-0.1	9	/
CCC(C)C(NC(=O)OC(C)(C)C)C(=O)NC1COC2CC(n3ccc(NC(C)=O)nc3=O)OC12 (stereo not given)	/	0.8	-11	/
Cc1ccc(CNC(=O)c2cc(=O)c3cc(C)cc(C)c3o2)cc1	/	0.7	-19	/
COc1cccc(N2CCN(C(=O)c3cnc4c(C)cccn4c3=O)CC2)c1	/	0.7	7	/
Cc1ccc2c(c1)c1c(c(=O)n(-c3ccccc3C)c(=O)n1CC(=O)N1CCCC1)n2C	/	1.0	-2	/

# Next part:
compound	CtBP-E1A blk	TRPML1 agonist	TRPML1 blocker	Six1-Eya2 inh
COc1ccc(CC(=O)NCC(c2ccc(N(C)C)cc2)N2CCOCC2)cc1OC (stereo not given)	/	-0.7	10	/
O=C(NCc1ccccc1)C1C(c2ccc3c(c2)OCO3)=Nc2ccccc2N1C(=O)c1cccc2ccccc12 (stereo not given)	-8	/	/	-10
CC(=O)N1CCC(C(=O)N2c3ccccc3N=C(c3ccc(C(F)(F)F)cc3)C2C(=O)NC(C)(C)C)CC1 (stereo not given)	8	/	/	-1
O=C(Nc1ccc(F)cc1)C(CCc1ccccc1)N1CCN(CC(=O)N2CCCC2)CC1 (stereo not given)	4	/	/	2
CSCCC(C(=O)Nc1c(C)cccc1C)n1c(COc2ccc(C)cc2)nc2ccccc21 (stereo not given)	-7	/	/	-9
COc1cccc(C(C(=O)NCc2ccccc2)N2CCN(C(=O)C3CCCO3)CC2)c1OC (stereo not given)	0	/	/	6
CN1C(=O)[C@@](O)(c2cn(C)c3ccccc23)c2cc(F)ccc21	-7	/	/	-1
Cc1nnsc1-c1nc2ccccc2n1C(CCc1ccccc1)c1nc2ccccc2[nH]1 (stereo not given)	-18	/	/	-2
O=C(NC1CCCC1)C1C(c2ccc(C(F)(F)F)cc2)=Nc2ccccc2N1C(=O)c1ccccc1 (stereo not given)	1	/	/	6
COC(=O)C[C@H]1CC[C@H](NC(=O)c2cccc(F)c2)[C@@H](CO)O1	-7	/	/	2
COC(=O)C(C(=O)OC)C1CCCCC1NS(=O)(=O)c1ccc(C)cc1 (stereo not given)	-24	/	/	11
COc1ccc(C(=O)C[C@@H]2OC[C@H](C(C)C)N2S(=O)(=O)c2ccc(C)cc2)cc1OC	1	/	/	-5
Cc1cccc(C)c1NC(=O)C(c1ccnc2ccccc12)N1CCN(C)CC1 (stereo not given)	-10	/	/	2
CCOC(=O)[C@]12CCCC=C1N(Cc1ccccc1)C(=O)[C@H](CC(=O)NCCc1ccccc1OC)C2	-1	/	/	-8
CC(C)(C)C(c1nc2ccccc2[nH]1)n1c(-c2ccco2)nc2ccccc21 (stereo not given)	6	/	/	-1
Cc1ccc2ccc(C(Nc3ccccc3)c3ccccc3)c(O)c2n1 (stereo not given)	-23	/	/	-18
O=C(NC1CCCC1)C(c1ccc(F)cc1)N1CCC(O)(c2ccc(Cl)cc2)CC1 (stereo not given)	2	/	/	-4
CC(C)(C)NC(=O)C(CCc1ccccc1)n1c(=O)c(-c2cc3ccccc3[nH]2)nc2ccccc21 (stereo not given)	0	/	/	47
COC(=O)[C@@]12C[C@@H](CC(=O)NCc3cccc(C(F)(F)F)c3)C(=O)N(Cc3ccc4c(c3)OCO4)C1=CCC(C)(C)C2	4	/	/	-3
COC(=O)[C@@]12C[C@@H](CC(=O)N3CCCCC3)C(=O)N(CCc3ccc(OC)c(OC)c3)C1=CCC(C)(C)C2	-2	/	/	-1
O=C(Nc1c(-c2ccccc2)[nH][nH]c1=O)c1ccc(-c2ccccc2)cc1	-1	/	/	2
O=c1c(-c2cccnc2)nc2ccccc2n1C(CCc1ccccc1)c1nc2ccccc2[nH]1 (stereo not given)	-11	/	/	-4
C[C@H]1CN([C@@H](C)CO)C(=O)CCCn2cc(nn2)CO[C@@H]1CN(C)C(=O)Nc1ccc2c(c1)OCCO2	-20	/	/	-1
COc1ccccc1S(=O)(=O)N(C)C[C@@H]1OCc2cnnn2CCCC(=O)N([C@@H](C)CO)C[C@H]1C	5	/	/	0
O=C(C(=O)N1CCC(Cc2ccccc2)CC1)c1ccccc1	3&0	/	/	-1&7
COc1ccc(NC(=O)N[C@H]2CC[C@@H](CC(=O)NC3CCC3)O[C@@H]2CO)cc1	8	/	/	0
COC(=O)[C@@]12C[C@@H](CC(=O)NCCCCc3ccccc3)C(=O)N(Cc3ccco3)C1=CCC(C)(C)C2	-17	/	/	-11
